TsaE inh: YjeE (TsaE) inhibition, E. coli; Potency, µM; hit rate 0.05% among 71,000; purified YjeE, fluorescence polarisation of a bound ADP probe; active = well fitted falling curve; inconclusive = weaker or top-dose-only fall, or a rising curve; inactive = flat or poorly fitted curve;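 further: top concentration of the series not given in the record; excess ADP was the control for the full effect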
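Purified YjeE (10 uM) with BODIPY Texas Red-labeled ADP probe (2 uM); compounds pin-transferred, 15 min at room temperature. Binding inhibition read as decreased fluorescence polarization; ADP titration as control.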
PK Bst: pyruvate kinase (B. stearothermophilus) modulation; hit rate 1.2% among 51,000; partly purified Bacillus stearothermophilus pyruvate kinase, luminescence ATP production; ribose 5-phosphate activator present at AC10; Potency, µM; in the data active means potency below about 11 µM; inconclusive means mostly about 12 µM to 25 µM; inactive means weaker than that;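 the screen sought inhibitors and activators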;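 further: potency means the concentration at half of the fitted maximal effect; scaled between full activation by ribose 5 phosphate and full inhibition by luteolin; about four in five hits inhibit and the cells do not say which; series up to 57 µM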
Numbers without * were called inactive; i = inactive; · = no result given. This is a subset; count on the stated rates, not on these rows.

nr	structure	TsaE inh	PK Bst
1	Clc1ccccc1C(c1ccccc1)(c1ccccc1)n1ccnc1	i	·
2	CCCCC(CC)Cn1c2nc3ccccc3nc2c2c(=N)oc(C)nc21 (centres undefined)	i	>57
3	CCOc1ccc(NC2CCN(C(C)=O)CC2)cc1	i	·
4	COc1ccccc1CN(Cc1nc2ccccc2c(=O)[nH]1)C(=O)Nc1ccccc1	i	>57
5	CC1Cc2ccccc2N1C(=O)CCS(=O)(=O)c1cccc2nonc12 (centres undefined)	i	>57
6	Cc1ccccc1OC(C)C(=O)NC1CCCC1 (centres undefined)	i	>57
7	CN(Cc1ccccc1)C(=O)Nc1ccccc1	i	>57
8	O=S(=O)(O)n1ccnc1 (tested in a mixture with another compound)	i	·

(listing goes on)
nr	structure	TsaE inh	PK Bst
9	CCN(CC)CCCN1C(=O)C(=O)/C(=C(/O)c2ccccc2)C1c1cc(OC)ccc1OC (centres undefined)	·	>26
10	CN1C(=O)CSc2ccc(NC(=O)NCCC3=CCCCC3)cc21	i	>57
11	COc1ccc(N2CCN(S(=O)(=O)c3ccc(Br)s3)CC2)cc1	i	>57
12	COc1ccccc1C(=O)N1CCN(S(=O)(=O)Cc2ccccc2)CC1	i	·
13	COC(=O)Cc1n[nH]c(=S)[nH]c1=O	i	>57
14	COCCn1c(SCC(=O)N2CCCC2)nnc1-c1ccoc1C	i	>57
15	Clc1ccc(C2=Nn3c(nnc3-c3n[nH]c4c3CCC4)SC2)cc1	i	>57
16	O=C(Nc1ccc(O)cc1C(=O)O)c1cccc(Br)c1	i	>57

Arranged by length of the SMILES (smallest number first): part of the list above
nr	structure	TsaE inh	PK Bst
14	COCCn1c(SCC(=O)N2CCCC2)nnc1-c1ccoc1C	i	>57
12	COc1ccccc1C(=O)N1CCN(S(=O)(=O)Cc2ccccc2)CC1	i	·
9	CCN(CC)CCCN1C(=O)C(=O)/C(=C(/O)c2ccccc2)C1c1cc(OC)ccc1OC (centres undefined)	·	>26

Additional results.
nr	structure	TsaE inh	PK Bst
17	O=C(Cn1c2c(c(-c3ccccc3)cc1=O)CCCC2)N1CCCCCC1	i	·
18	CCc1nnc(NC(=O)CSc2ncc(-c3ccccc3)n2CC)s1	i	>57
19	COc1ccccc1CNCCCCCCNCCCCCCCCNCCCCCCNCc1ccccc1OC	i	·
20	Clc1ccc(-c2nnc(N3CCCC3)nn2)cc1	i	·
21	COC(=O)c1c(C(=O)OC)c2oc3ccccc3n2c1Cl	i	i
22	Cn1c(C(O)c2ccc3c(c2)OCO3)nc2ccccc21 (centres undefined)	i	i
23	CCOC(=O)N1CCN(S(=O)(=O)c2cccc3nsnc23)CC1	i	>57
24	Cc1cccc(OCc2nnc(SCC(=O)N3CCCC3)n2C)c1	i	>57

Continuation.
nr	structure	TsaE inh	PK Bst
25	O=C(CSc1nnc(-c2cccs2)n1-c1ccccc1)Nc1ccccc1	i	>57
26	CCOC(=O)C1CCN(C=Nc2cc(C)on2)CC1	i	>57
27	Cc1cccc(N2CCN(C(=O)Cn3cccc3)CC2)c1C	i	·
28	COCCOC(=O)C1=C(C)NC(=O)NC1c1cn(-c2ccccc2)nc1-c1cccs1 (centres undefined)	i	>57
29	COc1ccc(-c2nnc(-c3ccc(Br)o3)o2)cc1OC	i	·
30	Cc1[nH]n2c(=O)c3c(nc2c1-c1ccccc1)CCCC3	i	>57
31	O=S(=O)(NCC(c1cccnc1)N1CCN(c2ccccc2)CC1)c1cccs1 (centres undefined)	i	>57
32	N#Cc1c[nH]n2c(=O)cc(Cc3ccccc3)nc12	i	>57

Six of these compounds, reformatted:
Below each compound – TsaE inh, PK Bst
29. COc1ccc(-c2nnc(-c3ccc(Br)o3)o2)cc1OC
 : i, ·
26. CCOC(=O)C1CCN(C=Nc2cc(C)on2)CC1
 : i, >57
28. COCCOC(=O)C1=C(C)NC(=O)NC1c1cn(-c2ccccc2)nc1-c1cccs1 (centres undefined)
 : i, >57
27. Cc1cccc(N2CCN(C(=O)Cn3cccc3)CC2)c1C
 : i, ·
30. Cc1[nH]n2c(=O)c3c(nc2c1-c1ccccc1)CCCC3
 : i, >57
25. O=C(CSc1nnc(-c2cccs2)n1-c1ccccc1)Nc1ccccc1
 : i, >57

The list continues:
nr	structure	TsaE inh	PK Bst
33	Cc1[nH]n2c(=O)c3c(nc2c1-c1ccc(Cl)cc1)CCC3	i	>57
34	NCCCCCCCCCCNS(=O)(=O)c1cccc2c(Cl)cccc12	i	·
35	O=S(=O)(NCc1ccccc1)c1cnc[nH]1	i	>57
36	CCN(CC)CCN1C(=O)C(=O)/C(=C(/O)c2cnn(-c3ccccc3)c2C)C1c1cccnc1 (centres undefined)	i	>57
37	CCC(C)(C)n1nnnc1CN(Cc1cccs1)Cc1cc2cc(OC)ccc2[nH]c1=O	i	>57
38	Cc1ccc(-c2nc3ncccn3c2NC(=O)C2CC2)cc1	i	>57
39	CCC(C)C(NC(=O)c1ccccc1NC(=O)c1ccco1)C(=O)O (centres undefined)	i	>57
40	O=C1C=CC(=Nc2cccc3c(N=C4C=CC(=O)O4)cccc23)O1	i	·

Later entries:
nr	structure	TsaE inh	PK Bst
41	CCOc1cc(CNn2cnnc2)ccc1OCC(=O)NC1CCCCC1	i	>57
42	NC(=O)CNCCC(c1ccccc1)c1ccccc1	i	·
43	O=C(C1CCC1)N1CCc2cc(S(=O)(=O)N3CCc4ccccc4C3)ccc21	i	>57
44	N[C@H](C(=O)O)[C@@H]1C[C@@H]1C(=O)O	i	·
45	O=C(NCCN1CCOCC1)c1cc(-c2ccc(Cl)cc2)on1	i	·
46	CCN1CCN(c2ncc(C(=O)N3CCCc4ccccc43)c3ccccc23)CC1	i	>57
47	COc1ccc(N2CCN(C(c3cccs3)C(C)NC(=O)c3ccco3)CC2)cc1 (centres undefined)	i	>57
48	CCCc1ncc(C(O)c2cccc(OC)c2OC)n1C (centres undefined)	i	·

(list continues)
nr	structure	TsaE inh	PK Bst
49	c1ccc(OCCOc2ccccc2-c2nnco2)cc1	i	>57
50	COc1ccc(C(=O)N2CCN(Cc3ccccc3C)CC2)cc1OC	i	>57
51	COc1ccc(-c2nc3c(c(=O)n(C)c(=O)n3C)n2CC2CC(c3ccccc3)=NO2)cc1OC (centres undefined)	i	>57
52	O=C(CCC(=O)N(c1ccccc1)C(C(=O)NC1CCCC1)c1ccncc1)Nc1cccnc1 (centres undefined)	i	>57
53	O=C(c1cccc(F)c1)N1CCC2(CCCN(c3ccncc3)C2)CC1	i	·
54	Cn1nnc2cc(C(=O)N3CCSCC3)ccc21	i	>57
55	O=C(O)CN(Cc1ccco1)S(=O)(=O)c1ccc(F)cc1	i	>57
56	Cc1csc(NC(=O)CSc2nncn2C)n1	i	>57

Following part:
nr	structure	TsaE inh	PK Bst
57	Cc1ccc2c(CN3CCN(CCO)CC3)cc(=O)oc2c1	i	>57
58	CC(C)C(NC(=O)CN1C(=O)c2ccccc2S1(=O)=O)C(C)C	i	·
59	c1ccc(-c2nc(NC3CC3)nc(-n3ccnc3)n2)cc1	i	i
60	CC(=O)N[C@H](Cc1ccc(O)cc1)C(=O)O	i	·
61	CCCCCCN(C(=O)CCCCCN1C(=O)NC(c2ccc(-c3ccccc3)cc2)C(C(=O)OCc2ccccc2)=C1C)C(C(=O)NCCCC)c1cccc(C(=O)OC)c1 (centres undefined)	i	·
62	O=C(c1ccc2c(c1)C(=O)N(Cc1ccco1)C2=O)N1CCOCC1	i	>57
63	CSc1ccc2c(c1)N(CCC1CCCCN1C)c1ccccc1S2 (centres undefined)	·	>26
64	COC(=O)c1ccc(OC(=O)c2nn(C)cc2Cl)c(OC)c1	i	·

(listing goes on)
nr	structure	TsaE inh	PK Bst
65	Cn1c(SCc2cnc(-c3ccccc3)s2)nnc1C1COc2ccccc2O1 (centres undefined)	i	>57
66	CC(C)(C)NC(=O)C(c1ccccc1)N(C(=O)c1ccco1)C1CC1 (centres undefined)	i	>57
67	C/C(N)=C(/C#N)C(=O)CSc1nc2ccc(C)cc2[nH]1	i	·
68	CCc1ccccc1NC(=O)CSc1nnc([C@@H](NC(=O)OC(C)(C)C)C(C)C)o1	i	>57
69	COc1cccc(NC(=O)c2ccccc2-c2nc(-c3ccc(Cl)cc3)no2)c1	i	>57
70	COc1cccc(C2c3c(oc4cc(C)c(C)cc4c3=O)C(=O)N2CCCN(C)C)c1 (centres undefined)	i	·
71	COc1cc(NC(=O)c2ccco2)c(OC)cc1NC(=O)CCC(=O)Nc1cc(C)cc(C)c1	i	>57
72	Cc1onc(-c2ccccc2Cl)c1C(=O)Nc1nn[nH]n1	i	·

(further entries)
nr	structure	TsaE inh	PK Bst
73	CCn1c(SCc2cc(=O)[nH]c3ccccc23)nc2c1c(=O)n(C)c(=O)n2C	i	>57
74	CCOC(=O)C1=C(c2ccccc2)NC(=O)NC1c1ccc(N(C)C)cc1 (centres undefined)	i	·
75	CCc1cc2c(C)cc(=O)oc2cc1OC(=O)C1CCCN1C(=O)OC(C)(C)C (centres undefined)	i	>57
76	COCc1nc(-c2ccc(-c3ccc(C)cc3)nc2OC)no1	i	i
77	COc1ccc(S(=O)(=O)Nc2c(C(=O)O)[nH]c3ccccc23)c(OC)c1	i	>57
78	COCCCNC(=O)c1c(-c2ccccc2)noc1C	i	>57
79	Cc1cc(C)cc(C(=O)N(C)[C@H](Cc2ccc(-c3ccccc3)cc2)C(=O)N[C@@H](Cc2c[nH]c3ccccc23)C(=O)O)c1	i	·
80	O=C(O)c1ccc2c(c1)N(Cc1ccccc1F)C(=O)c1ccccc1S2=O (centres undefined)	i	·

Continuation.
nr	structure	TsaE inh	PK Bst
81	COc1ccccc1CNC(=O)C(C)NS(=O)(=O)c1ccccc1 (centres undefined)	i	>57
82	Oc1c(Cl)cc(CN(Cc2cc(Cl)c(O)c(Cl)c2)C2CCCCC2)cc1Cl	i	·
83	CCCSc1nnc2nc(C)cc(C)n12	i	·
84	CN(C)C=C1C(=O)c2ccccc2C1=O	·	>26
85	O=C(C1CCN(S(=O)(=O)c2ccc(F)cc2)CC1)N1CC=C(c2ccccc2)CC1	i	>57
86	Cc1cccc(C)c1NC(=O)CC(NCc1ccco1)C(=O)O (centres undefined)	i	>57
87	O=C(c1ccc(NC(=O)C2(c3ccccc3)CCOCC2)cc1)N1CCOCC1	i	>57
88	CSCCC(NC(N)=O)C(=O)N(C)CC(=O)Nc1ccc(C)cc1 (centres undefined)	i	>57

(next part)
nr	structure	TsaE inh	PK Bst
89	CCOC(=O)CCc1c(C)nc(SCCN2CCCC2)c(C#N)c1C	i	>57
90	C=CCn1c(CCCNC(=O)CCC)nc2ccccc21	i	>57
91	O=C1c2oc3ccc(Cl)cc3c(=O)c2C(c2ccco2)N1CCN1CCOCC1 (centres undefined)	i	·
92	COc1ccc(C2CC(=O)C(C=NCCN3CCOCC3)=C(O)C2)cc1 (centres undefined)	·	>26
93	CC(=O)c1sc(-c2c(C)nc3sccn23)nc1C1CCCC1	i	>57
94	CC1(C)C2CCC1(C)C(NC(=O)CCN1CCCCC1)C2 (centres undefined)	·	>26
95	COc1ccc(Cl)cc1NC(=O)N1CCN(S(C)(=O)=O)CC1	i	>57
96	O=C(Nc1ccc2c(c1)OCCO2)c1ccccc1F	i	·

(further entries)
nr	structure	TsaE inh	PK Bst
97	O=C1CSC(=O)N1CCOCCN1C(=O)CSC1=O	i	>57
98	CCc1cccc(NC(=O)Cn2cc3c(n2)CCCC3)c1	i	·
99	Cc1cc(C)c2c(SCc3ccc(Cl)cc3Cl)nc(N)nc2n1	i	·
100	CCSc1ccccc1C(=O)N1CCN(c2ccccc2F)CC1	i	>57
101	COC(=O)c1ccccc1	i	·
102	COc1ccc(-c2nc(N)nc(C)c2Oc2ccccc2Br)c(O)c1	i	1.9*
103	COc1ccc(-c2noc(CN3CCN(c4ccccc4F)CC3)n2)cc1OC	i	>57
104	Cc1cccnc1NC(=O)Nc1ccc(F)cc1	i	·

Remaining list, next part:
nr	structure	TsaE inh	PK Bst
105	C[N+](C)(C)CCOP(=O)([O-])OC[C@H](O)CO	·	>26
106	COc1ccc(NC(=O)c2oc3ccccc3c2NC(=O)C2CC2)cc1	i	>57
107	COc1ccc(S(=O)(=O)Nc2c(C)n(C)n(-c3ccccc3)c2=O)cc1	i	>57
108	Cc1occc1C(=O)N1CCN(c2ncccn2)CC1	i	·
109	Cc1cccc(N(CC(=O)NCC2CCCO2)C(=O)CCC(=O)Nc2cc(C)on2)c1 (centres undefined)	i	>57
110	Cc1ccc(OCC(=O)NCC(=O)n2nc(C)cc2C)cc1	·	>26
111	CC(C)N1C[C@@]23C=C[C@@H](O2)C(C(=O)OCc2ccccc2)[C@H]3C1=O (some centres undefined)	i	>57
112	Cc1cccc(-c2c3c(=O)n(C)c(=O)n(C)c3c3nnc4ccccc4n23)c1	i	>57

Next section.
nr	structure	TsaE inh	PK Bst
113	O=C1CC(C(=O)Nc2ccccc2C(=O)O)C(c2ccccc2)O1 (centres undefined)	i	>57
114	Cc1oc(-c2cccc(Cl)c2)nc1CN1CCC(C(=O)NCc2cccnc2)CC1	i	>57
115	FC(F)(F)c1cc(-c2ccc3c(c2)OCO3)nc(NCc2ccco2)n1	i	·
116	Cc1ccc(S(=O)(=O)NCCSc2nnnn2C)cc1	i	>57
117	CCOc1ccc(C2C(C(=O)c3ccco3)=C(O)C(=O)N2CCCn2ccnc2)cc1 (centres undefined)	i	>57
118	COc1ccc(OC)c(S(=O)(=O)Nc2ccc(C(N)=O)cc2)c1	i	>57
119	CNC(=O)[C@H]1O[C@H](n2cnc3c(NCc4cccc(I)c4)nc(Cl)nc32)[C@@H](O)[C@@H]1O	i	·
120	CCOc1ccc(S(=O)(=O)Nc2cccc(C(=O)N3CCN(c4ccc(OC)cc4)CC3)c2)cc1	i	>57
121	COc1ccc(S(=O)(=O)NCC(=O)N(CC(=O)NCC2CCCO2)c2ccccc2C)cc1 (centres undefined)	i	>57
122	N#Cc1ccccc1S(=O)(=O)N1CCN(c2ccc(S(=O)(=O)N3CCOCC3)cn2)CC1	i	>57
123	NCCCCNS(=O)(=O)c1cccc2c(Cl)cccc12	i	·
